# Assay outcomes as filed in PubChem BioAssay.
# CSC inhib: cancer stem cell viability inhibitors, primary screen, luminescence; AID 2717, 2010; cancer stem cell-like cells viability; inhibition, % at 7.5 µM; hit rate 1.1% among 300,000;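 active = mean at 75% or more and at least half the replicates too; tested in HMLE shEcad cells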;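 note: 0% = median of negative and 100% = median of positive control wells; the first replicate is given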
# eIF4H FP inh: human eIF4H binding inhibitors, primary screen, translation initiation inhibitor project, biochemical, uHTS, fluorescence polarization; eIF4H fluorescence polarization binding assay; hit rate 0.94% among 290,000; Eukaryotic translation initiation factor 4H (Homo sapiens), Q15056; AID 2012, 2009; inhibition, % at 35 µM;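 active = 50% or more with normal probe brightness, or confirmed in later tests; about a fifth of its hits are not listed in these tables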;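 note: calls also rest on retests at 20 µM and on dose response follow-up; 0% = protein and probe with vehicle and 100% = probe without protein; strong numbers were not always called active; many hits fall short of the cut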
# MT1-MMP act inh: blockers of MT1-MMP proenzyme processing, primary screen, HT1080 RFP-PRO-GFP cells, GFP/RFP fluorescence | GFP/RFP ratio change, % at 20 µM | GFP/RFP ratio fluorescence, overnight; percent of plate control window, DMSO zero | AID 651647, 2012 | Matrix metalloproteinase-14 (Homo sapiens), P50281 | hit rate 0.061% among 360,000;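 active = GFP/RFP ratio change of at least 30% with cell ATP level not reduced by more than half and red fluorescence within 50% of control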; note: strong numbers were not always called active
#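 Assay system: RFP-PRO-GFP reporter HT1080 cells; read-out basis: GFP/RFP fluorescence ratio; benchmarks: DMSO wells and RFP-L50D-GFP cells; doses: 20 µM single dose, 1% DMSO; schedule: overnight cell settling, then overnight compound exposure, 37 °C, 5% CO2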
# PABP FP inh: PABP poly(A) RNA binding inhibitors, primary screen, biochemical, fluorescence polarization, uHTS | hit rate 1% among 290,000 | AID 2014, 2009 | inhibition, % at 35 µM | Polyadenylate-binding protein 1 (Homo sapiens), P11940;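 active = 50% or more with normal probe brightness, or confirmed in later tests; about a fifth of its hits are not listed in these tables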;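 note: calls also rest on retests at 20 µM and on dose response follow-up; controls were probe without protein and protein plus probe with vehicle; some compounds called inactive have numbers as strong as hits; many hits fall short of the cut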
# Target sequence (P11940 whole entry, looked up): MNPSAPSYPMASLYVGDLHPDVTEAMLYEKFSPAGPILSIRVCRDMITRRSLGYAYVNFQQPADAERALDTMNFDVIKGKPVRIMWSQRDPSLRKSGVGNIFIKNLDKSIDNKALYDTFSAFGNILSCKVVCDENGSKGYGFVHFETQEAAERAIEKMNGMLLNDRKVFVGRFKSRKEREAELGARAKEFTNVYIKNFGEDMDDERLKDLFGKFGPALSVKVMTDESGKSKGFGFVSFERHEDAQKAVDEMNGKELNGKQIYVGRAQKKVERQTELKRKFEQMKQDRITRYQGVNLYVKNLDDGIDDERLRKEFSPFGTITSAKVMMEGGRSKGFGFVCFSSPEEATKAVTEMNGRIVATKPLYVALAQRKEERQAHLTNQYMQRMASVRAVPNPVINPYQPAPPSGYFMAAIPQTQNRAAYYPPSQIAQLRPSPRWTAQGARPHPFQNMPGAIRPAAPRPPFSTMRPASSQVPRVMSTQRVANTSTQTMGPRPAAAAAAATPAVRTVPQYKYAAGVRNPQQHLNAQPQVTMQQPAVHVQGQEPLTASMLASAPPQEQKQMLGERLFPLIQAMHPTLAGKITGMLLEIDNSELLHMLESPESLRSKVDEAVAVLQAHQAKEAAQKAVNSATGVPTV
# UUG fidelity: modulators of yeast start codon fidelity, primary screen, whole organism, S. cerevisiae, single point, plate reader. S. cerevisiae UUG-firefly luciferase reporter, luminescence/redox ratio. activity score, % at 18.7 µM. hit rate 0.13% among 350,000. AID 602363, 2012;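 active = replicate mean at a twofold rise or more, about +100% in these data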;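 note: firefly luciferase made from a UUG start codon reports start codon fidelity; reporter light over untreated wells divided by growth signal over untreated wells; some hits fall short of that in this replicate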
# Env fusion inh: inhibitors of HIV-1 Env-driven cell-cell fusion, primary screen, HeLa-JRFL effector, CEM21 target cells, luciferase; inhibition, % at 12.3 µM; hit rate 1.1% among 360,000; AID 651610, 2012;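 active = mean replicate inhibition score of at least 50 and every replicate individually at or above 50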;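 note: 0% = plate neutral controls and 100% = maraviroc near 300 nM; one replicate is shown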
# Rce1 inhib: yeast Rce1p protease inhibitors, primary screen, biochemical, fluorescence, cell-free homogeneous; yeast membranes, quenched prenylated peptide cleavage fluorescence; calls only; hit rate 0.27% among 290,000; AID 2563, 2010;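 active = fall in fluorescence gain of 50% or more versus controls, with final raw signal at or below 3038400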;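 note: plate controls were neutral control wells for no effect and wells lacking membranes for full effect; tested at 10 µM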
# Target sequence (Q03530 whole entry, looked up): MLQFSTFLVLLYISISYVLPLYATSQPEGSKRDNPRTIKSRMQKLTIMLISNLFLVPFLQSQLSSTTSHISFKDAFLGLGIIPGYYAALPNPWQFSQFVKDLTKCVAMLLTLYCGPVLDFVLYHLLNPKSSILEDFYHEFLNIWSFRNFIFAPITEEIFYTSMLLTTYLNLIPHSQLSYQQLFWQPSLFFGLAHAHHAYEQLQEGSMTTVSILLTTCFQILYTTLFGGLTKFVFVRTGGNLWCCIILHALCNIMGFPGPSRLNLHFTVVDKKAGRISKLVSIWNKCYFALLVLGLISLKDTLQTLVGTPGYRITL
# eIF4H FP inh retest: second read-out of eIF4H FP inh, no call of its own (marks repeat the call); inhibition, %; compound at 20 µM; confirmation average;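 mean of two retest wells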
# PABP FP inh retest: further read-out of PABP FP inh, marked with its call; inhibition, %; compound at 20 µM; confirmation repeats;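 mean of two retest wells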
# MT1-MMP act inh RFP: further read-out of MT1-MMP act inh, marked with its call; RFP signal change, %; measured here: RFP expression control read;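 0 = vehicle wells; hits needed this value within 50% of zero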
# An asterisk follows results filed as active; i = inactive; · = not tested or not shown. These rows are one share of the data, so the mix of outcomes need not match the whole.
SMILES,CSC inhib,eIF4H FP inh,MT1-MMP act inh,MT1-MMP act inh RFP,PABP FP inh,UUG fidelity,Env fusion inh,Rce1 inhib,others
O=C(COC(=O)c1cc2c(s1)CCC2)Nc1ccc(F)cc1,5,97*,-11,0,35*,·,-5,·,eIF4H FP inh retest=95*;PABP FP inh retest=58*
COCCN(Cc1ccc(OC)cc1)c1c(C)nc2ccc(C(=O)Nc3ccc(NC(C)=O)cc3)cn12,·,·,4,5,·,-15,-18,·,
COc1ccc(NC(=S)N2CCC(N(C)CC3CCCO3)CC2)cc1Cl (configuration not stated),34,-7,2,3,-11,·,-8,i,
Cc1c(NC(=S)NC(=O)C(C)(C)C)c(=O)n(-c2ccccc2)n1C,·,4,-7,0,-3,0,11,i,
CCS(=O)(=O)Nc1ccc(-c2nnc(SCC(=O)c3cccc(OC)c3)o2)cc1,-6,-3,0,1,-1,-10,·,i,
O=C(Cn1nc(-c2ccccc2Cl)ccc1=O)Nc1ccc(Br)cc1,5,-11,1,1,-3,·,-11,i,
CCOc1ccc(C2NC(=O)c3n[nH]c(C)c32)cc1 (configuration not stated),-6,-4,2,7,6,-22,-51,i,
COCCn1c(N)c(Sc2ccccc2[N+](=O)[O-])c(=O)[nH]c1=O,3,-6,5,2,5,7,4,i,
COc1ccc(NS(=O)(=O)c2ccc(C)c(C(=O)O)c2)cc1,-5,8,-1,-1,13,-12,·,i,
Cc1ccc(C2=NN(CC(=O)O)C(=O)CC2)cc1,-1,22,4,5,7,-9,3,i,
CC(C)N(C(=O)COC(=O)c1cc(Cl)cc(Cl)c1N)C(C)C,0,-8,-2,-2,5,4,-23,i,
Cn1c(SCC(=O)NN2C(=O)NC(C)(c3ccccc3)C2=O)nnc1-c1ccncc1 (configuration not stated),-13,·,-1,3,·,-8,-3,·,
O=C(NCc1nnnn1-c1ccc(Cl)cc1)c1ccc(Br)o1,5,·,0,-3,·,7,11,i,
C=CCSc1nc(C)cc(/C=C\c2ccccc2)c1C#N,3,-1,6,6,-8,0,-31,i,
CSc1ncccc1C(=O)NC(C)C1CC2CCC1C2 (configuration not stated),-11,2,-2,1,19,·,8,i,
O=C(C1CCCCC1)N1C[C@@H](O)[C@H](n2cc(C3CC3)nn2)C[C@@H]1c1ccc(Cl)cc1,·,·,0,1,·,0,-43,·,
O=C(CSc1nnc(-c2cccs2)n1C1CC1)NCC1CCCO1 (configuration not stated),-4,·,-5,1,·,-1,-14,·,
CCc1noc(C)c1C(=O)Nc1ccc(Cl)c(S(=O)(=O)N2CCCCC2)c1,-10,·,-2,-18,·,-14,·,i,
CCOC(=O)COc1nc(-c2ccc(Cl)cc2)cc(-c2ccco2)c1C#N,35,-4,-3,-2,2,-8,-5,i,
Cc1ccc(NC(=O)CN(C)S(=O)(=O)c2ccc3c(c2)n(C)c(=O)c(=O)n3C)cc1,9,1,0,3,1,-21,3,i,
COc1ccc(CCN2C(=O)c3ccccc3C2(O)c2ncc[nH]2)cc1OC (configuration not stated),12,-8,-2,2,-14,-4,-65,i,
Cc1ccc(N=C2C(=O)Nc3ccccc32)c(C)c1,-5,8,2,8,3,-13,-5,i,
COC(=O)c1[nH]c2cccc(OC)c2c1NC(=O)CCN1CCN(c2ccccc2OC)CC1,-3,-7,3,4,-1,-8,-18,i,
Cc1ccc(NC(=O)COC(=O)c2ccc([N+](=O)[O-])o2)cc1S(=O)(=O)N1CCCCCC1,-5,46,5,3,-2,-10,11,i,
S=C(N/N=C/c1ccc(Cl)c(Cl)c1)Nc1ccccc1Cl,15,12,4,1,14,·,6,i,
Cc1ccn2cc(CCNC(=O)CC3CCCCC3)nc2c1,4,0,4,5,10,·,-30,i,
CCOc1ccc(NC(=O)CN(C)C(=O)Cn2cnc3c2c(=O)n(C)c(=O)n3C)cc1OCC,-3,·,3,4,·,5,-19,i,
CCc1nnc(NC(=O)CCC(=O)N2CCCC2)s1,-11,1,8,9,4,-20,-57,i,
COc1ccc(/C=C(/NC(=O)c2cccs2)C(=O)N2CCOCC2)cc1OC,-11,-1,0,4,-4,·,·,i,
Cc1c(/C=N\NC(=O)c2ccc([N+](=O)[O-])cc2)cnn1C,-9,-1,15,7,1,-17,23,i,
Cc1nc2ccc(NC(=S)N3CCOCC3)cc2nc1C,-3,-9,2,4,-3,·,9,i,
O=C(CSc1nc2ccccc2c(=O)n1-c1ccc(Cl)cc1)N/N=C/C=C/c1ccccc1[N+](=O)[O-],·,4,4,1,1,-9,-16,i,
CCCN(C(=O)COC(=O)CCOc1ccccc1)c1c(N)n(Cc2ccccc2)c(=O)[nH]c1=O,-7,·,3,-3,·,4,-32,·,
COC(=O)c1ccc2nc(NC(=O)COC(=O)CSc3nc(C)cc(C)n3)sc2c1,-28,10,-3,4,-2,-12,-33,i,
O=c1c2[nH]c3ccccc3c2ncn1CCN1CCCCC1,-2,9,3,0,-2,-11,-10,i,
CCc1nc2c(OCC(=O)c3ccc(Cl)cc3Cl)cccn2c1N(C=O)Cc1ccccc1,·,·,-4,1,·,-19,2,·,

# 13 structures from above, sorted by length of the SMILES, high to low.
SMILES,CSC inhib,eIF4H FP inh,MT1-MMP act inh,MT1-MMP act inh RFP,PABP FP inh,UUG fidelity,Env fusion inh,Rce1 inhib,others
O=C(CSc1nc2ccccc2c(=O)n1-c1ccc(Cl)cc1)N/N=C/C=C/c1ccccc1[N+](=O)[O-],·,4,4,1,1,-9,-16,i,
CCCN(C(=O)COC(=O)CCOc1ccccc1)c1c(N)n(Cc2ccccc2)c(=O)[nH]c1=O,-7,·,3,-3,·,4,-32,·,
CCOc1ccc(NC(=O)CN(C)C(=O)Cn2cnc3c2c(=O)n(C)c(=O)n3C)cc1OCC,-3,·,3,4,·,5,-19,i,
COC(=O)c1[nH]c2cccc(OC)c2c1NC(=O)CCN1CCN(c2ccccc2OC)CC1,-3,-7,3,4,-1,-8,-18,i,
COC(=O)c1ccc2nc(NC(=O)COC(=O)CSc3nc(C)cc(C)n3)sc2c1,-28,10,-3,4,-2,-12,-33,i,
COc1ccc(/C=C(/NC(=O)c2cccs2)C(=O)N2CCOCC2)cc1OC,-11,-1,0,4,-4,·,·,i,
COc1ccc(CCN2C(=O)c3ccccc3C2(O)c2ncc[nH]2)cc1OC (configuration not stated),12,-8,-2,2,-14,-4,-65,i,
Cc1c(/C=N\NC(=O)c2ccc([N+](=O)[O-])cc2)cnn1C,-9,-1,15,7,1,-17,23,i,
S=C(N/N=C/c1ccc(Cl)c(Cl)c1)Nc1ccccc1Cl,15,12,4,1,14,·,6,i,
O=c1c2[nH]c3ccccc3c2ncn1CCN1CCCCC1,-2,9,3,0,-2,-11,-10,i,
Cc1ccc(N=C2C(=O)Nc3ccccc32)c(C)c1,-5,8,2,8,3,-13,-5,i,
Cc1nc2ccc(NC(=S)N3CCOCC3)cc2nc1C,-3,-9,2,4,-3,·,9,i,
CCc1nnc(NC(=O)CCC(=O)N2CCCC2)s1,-11,1,8,9,4,-20,-57,i,

# Ordered by heavy-atom count (rising): part of the list above.
SMILES,CSC inhib,eIF4H FP inh,MT1-MMP act inh,MT1-MMP act inh RFP,PABP FP inh,UUG fidelity,Env fusion inh,Rce1 inhib,others
CCc1nnc(NC(=O)CCC(=O)N2CCCC2)s1,-11,1,8,9,4,-20,-57,i,
COC(=O)c1ccc2nc(NC(=O)COC(=O)CSc3nc(C)cc(C)n3)sc2c1,-28,10,-3,4,-2,-12,-33,i,
CCOc1ccc(NC(=O)CN(C)C(=O)Cn2cnc3c2c(=O)n(C)c(=O)n3C)cc1OCC,-3,·,3,4,·,5,-19,i,

# (listing goes on)
SMILES,CSC inhib,eIF4H FP inh,MT1-MMP act inh,MT1-MMP act inh RFP,PABP FP inh,UUG fidelity,Env fusion inh,Rce1 inhib,others
O=C(Nc1ccc(Cl)cc1)c1nc[nH]c1C(=O)N1CCc2ccccc2C1,2,·,1,5,·,-14,-20,·,
O=C(NCc1ccccn1)Nc1ccc(Cl)c(Cl)c1,2,-5,-3,1,7,-53,·,i,
c1ccc2c3c([nH]c2c1)C(C1CCCCC1)N(Cc1ncc[nH]1)CC3 (configuration not stated),-13,-3,2,2,-4,-23,-9,i,
O=C1C=C(c2ccc(F)nc2)C[C@@H](c2ccc3c(c2)OCO3)C1,18,·,6,1,·,-20,-19,·,
CCCCC(NC(=O)COc1cc2c(c3oc(=O)cc(C)c13)CCC(C)(C)O2)C(=O)O (configuration not stated),-3,-6,-1,-2,6,-3,-7,i,
COc1cccc(NC(=O)C2CCOC2=O)c1 (configuration not stated),-16,·,3,5,·,-5,3,i,
O=C1C(Oc2ccccc2)C(c2ccc3c(c2)OCO3)N1CCc1ccc(F)cc1 (configuration not stated),1,2,-1,-1,-4,-21,·,i,
Cc1ccc(CSc2nc(N)cc(N)n2)cc1,-1,-1,-2,-2,7,-21,-4,i,
O=C(OCCOCCN=C1NS(=O)(=O)c2ccccc21)c1ccncc1,-21,-16,0,3,-8,10,·,·,
COc1ccccc1/C=C/C(=O)NCC(=O)N/N=C(/C)c1ccco1,9,8,0,0,8,-25,10,i,
COc1ccccc1C(=O)N(Cc1cccs1)C1CCS(=O)(=O)C1 (configuration not stated),-35,0,-9,4,-3,-18,·,i,
COc1cc(/C=C/C(=O)OCC(=O)N2CCN(S(=O)(=O)c3ccc(C)cc3C)CC2)cc(Cl)c1OC,·,·,1,2,·,0,-3,·,
CCc1ccc(/C=C2/Sc3ccccc3N(CC(=O)NCCCOC)C2=O)cc1,-12,-12,·,·,80,·,·,i,eIF4H FP inh retest=42;PABP FP inh retest=39
C[C@H]1CN([C@@H](C)CO)S(=O)(=O)c2ccc(Br)cc2O[C@H]1CN(C)C(=O)Cc1ccccn1,·,·,0,5,·,-5,26,·,
C=CCc1cc(C)cc(C)c1OCCn1cncn1,16,-1,2,0,-10,-19,-399,i,
COc1ccc(CNC(=S)Nc2ccccc2Cl)cc1,-8,0,5,-3,6,-32,-29,i,
O=[N+]([O-])c1ccc(-c2cc(-c3ccncc3)nc3ccc4ccccc4c23)cc1,·,-2,-6,-7,-10,-7,·,·,
COc1ccc([C@@H]2CC=C(C(=O)O)[C@H](c3cccc(Cl)c3)N2S(=O)(=O)c2ccc(Cl)cc2)cc1,1,·,3,7,·,-5,9,·,
CC(=O)N1CCN(CCN=CC2=C(O)CC(C)(C)CC2=O)CC1,-9,2,2,4,4,2,-64,i,
O=C(c1ccccc1)c1ccc2nc(-c3ccc(NC(=O)c4ccccc4F)cc3)[nH]c2c1,-6,-18,7,0,-6,-2,·,i,
COc1ccc(/C=N/Nc2nc3ccccc3c(=O)[nH]2)cc1,13,-10,4,2,2,-8,-44,i,
Fc1ccc(-c2n[nH]c(=S)n2CC2CCCO2)cc1 (configuration not stated),·,-3,·,·,6,-5,30,i,
CC1CCc2sc(C(=O)NNC(=S)NCC3CCCO3)cc2C1 (configuration not stated),-3,4,-2,-2,0,-24,-5,i,
CN(C)C(=O)CN(c1ccc(F)c(Cl)c1)S(C)(=O)=O,-15,4,4,2,0,-21,-6,i,
O=C(c1ccc(S(=O)(=O)N2CCCCC2)cc1)N1CCN(c2ccccc2)CC1,-14,19,-2,-6,0,-14,3,i,
COc1ccccc1NC(=O)CCN1C(=O)/C(=C\c2cc(OC)c(OC)c(OC)c2)SC1=S,5,-13,36*,24*,-8,-14,-2,i,
COc1ccc(S(=O)(=O)NC2CC2)cc1Cl,-11,5,-1,1,10,2,-18,i,
